Source: PubChem BioAssay (several laboratories)
GALR2 ag: GALR2 receptor agonists, primary screen, cell-based. Galanin receptor type 2 (Homo sapiens), O43603. GALR2-expressing cells, agonist activation read-out. activation, %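 (tested at 5 µM)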. 0.48% of 140,000 active. AID 803, 2007;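 active means above mean plus 3 SD of all compounds, about 5% in these data, not always enough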;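 further: 0% = vehicle buffer wells and 100% = reference agonist at full effect; tested in CHO reporter cells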
Target sequence (O43603 whole entry, looked up): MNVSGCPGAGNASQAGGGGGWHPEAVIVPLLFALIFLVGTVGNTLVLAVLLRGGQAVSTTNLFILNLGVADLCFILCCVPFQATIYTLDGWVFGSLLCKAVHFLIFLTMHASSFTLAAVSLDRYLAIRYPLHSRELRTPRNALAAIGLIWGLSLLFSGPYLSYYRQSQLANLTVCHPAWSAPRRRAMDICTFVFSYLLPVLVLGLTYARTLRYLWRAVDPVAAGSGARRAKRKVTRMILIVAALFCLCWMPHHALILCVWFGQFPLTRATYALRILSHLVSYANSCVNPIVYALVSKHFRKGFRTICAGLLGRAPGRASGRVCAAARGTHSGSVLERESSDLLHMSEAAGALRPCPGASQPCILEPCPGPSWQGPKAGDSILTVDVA
PKD1 kinase inh: inhibitors of human PKD1 kinase, biochemical, fluorescence polarization; Serine/threonine-protein kinase D1 (Homo sapiens), Q15139; PKD1 kinase fluorescence polarization assay; inhibition, %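 (about 10 µM by stock and volumes)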; 0.056% of 200,000 active; AID 797, 2007;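 active means inhibition of 50% or more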;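 further: controls were vehicle for no effect and a reference inhibitor for full effect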
RGS16-Gao HTS: modulators of RGS16 binding to Galphao, primary screen, biochemical, human proteins, multiplexed bead flow cytometry | bead-based flow cytometry RGS16-Galphao binding, fluorescence; actives lie on both sides | binding response (% of control), % at 10 µM | 0.38% of 220,000 active | AID 1441, 2008;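 active means below 25% or above 175%, edge rows of some plates excepted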;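 further: Galphao activated by GDP with aluminum fluoride before binding; 100% = wells without compound and 0% = beads without RGS; some results beyond the cut were filed as inactive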
Target sequence (O15492 whole entry, looked up): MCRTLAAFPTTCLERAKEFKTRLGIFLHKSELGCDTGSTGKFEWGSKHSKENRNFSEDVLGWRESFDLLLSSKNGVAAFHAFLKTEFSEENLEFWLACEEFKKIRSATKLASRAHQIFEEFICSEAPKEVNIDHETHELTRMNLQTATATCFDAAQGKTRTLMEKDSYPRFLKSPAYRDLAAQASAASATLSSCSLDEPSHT
Target sequence (P09471 whole entry, looked up): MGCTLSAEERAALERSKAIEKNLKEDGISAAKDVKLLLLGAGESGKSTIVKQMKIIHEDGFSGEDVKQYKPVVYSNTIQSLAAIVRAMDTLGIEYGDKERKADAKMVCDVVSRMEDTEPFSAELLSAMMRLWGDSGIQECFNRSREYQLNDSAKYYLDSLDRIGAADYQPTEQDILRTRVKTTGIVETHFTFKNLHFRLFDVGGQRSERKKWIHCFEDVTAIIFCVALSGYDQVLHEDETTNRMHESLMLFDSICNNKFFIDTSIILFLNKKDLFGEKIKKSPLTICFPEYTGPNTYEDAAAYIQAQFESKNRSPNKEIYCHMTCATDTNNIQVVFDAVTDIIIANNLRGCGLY
HSV augment: enhancers of HSV replication in host cells, fold increase, host cell viability; maximum fold increase; HSV replication augmentation in cells; AID 1956, 2009; 0.005% of 220,000 active;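 active means peak rise of 1.5-fold or more in the series; tested in PC3 cells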;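 further: first round at 10 µM; read as green reporter fluorescence; hits show the peak of a series up to 25 µM; 1 = signal of infected wells without compound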
Insulin prom inh: inhibitors of insulin promoter-driven GFP, primary screen, imaging, TRM-6 cells (human fetal islet line), eGFP reporter, cell count. inhibition, % at 2 µM. reporter expression induced with tamoxifen. 0.9% of 130,000 active. AID 1273, 2008;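 active means inhibition above the mean plus 3 SD, with well images judged a real hit on visual review, cut at about 60% in these data, passing the limit was not always enough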
Insulin prom inh cell count: also measured in Insulin prom inh; calls as there; normalized cell count, %; measured here: cell count, toxicity; reference of the scale not given here;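 cells exposed to compound for 48 h; stained nuclei by imaging scaled within each plate; lower means fewer cells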
HSV augment primary fold: recorded beside HSV augment, whose call it bears; fold increase; compound at 10 µM; measured here: primary screen fold increase 10 uM; tested in PC3 cells;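 GFP signal in the first replicate; 1 = infected wells without compound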
Numbers without * were called inactive; i = inactive; . = no result given. Rows are unselected. Share with any hit: about 1.3%.

smiles	GALR2 ag	PKD1 kinase inh	RGS16-Gao HTS	HSV augment	HSV augment primary fold	Insulin prom inh	Insulin prom inh cell count
Cc1cc(-c2nnc(CCC(=O)N(C)Cc3cccc4ccccc34)o2)no1	.	4	108	i	0.98	.	.
O=C(N/N=C/c1cccs1)C(=O)N1CCCC1	.	7	103	i	1.1	.	.
COc1ccccc1Nc1nc(-c2ccc3c(c2)NC(=O)CO3)cs1	.	-2	98	i	0.66	-53	61
C1CNC(C23CC4CC(CC(C4)C2)C3)=N1	.	-9	150	i	0.8	25	92
Nc1nnc(-c2ccc(Cl)cc2)s1	-0.2	-1	85	i	0.81	21	119
O=C(CCNC(=O)c1ccc(Cl)cc1)Nc1c(F)c(F)cc(F)c1F	0.1	-5	65	i	0.88	-33	87
O=C(CSc1ccncc1)Nc1ccc(S(=O)(=O)Nc2nccs2)cc1	.	-3	102	i	0.96	.	.
CCc1c(C(=O)Nc2ccc(S(=O)(=O)N3CCOCC3)cc2)csc1C	-2.1	-2	104	i	0.89	-288	95
CCc1nc2ccccc2c(NC(=O)CN2CCC(C)CC2)c1C	-2.3	-5	100	i	0.88	.	.
COC(=O)C1(c2ccccc2)NC(c2cccs2)C2C(=O)N(c3ccccc3)C(=O)C21 (centres undefined)	1.3	-7	112	i	1	38	129
CCOC(=O)c1[nH]c2ccccc2c1NC(=O)CC(C)C	.	.	106	i	0.82	.	.
CC(=O)Nc1ccc2nc(C3CC3)n(Cc3ccc(Cl)cc3)c(=O)c2c1	.	-2	102	i	0.79	-13	50
Cc1nn(C)c(C)c1CNC(=O)Nc1ccc2c(c1)OCO2	.	-5	103	i	0.98	.	.
COc1ccc(/C(=N\O)c2nccc3cc(OC)c(OC)cc23)cc1OC	.	-1	67	i	1	29	94
O=S(=O)(NCCOCC(F)(F)C(F)F)c1ccc2oc3ccccc3c2c1	-1.8	4	101	i	0.88	-71	136

Remaining list, next part
smiles	GALR2 ag	PKD1 kinase inh	RGS16-Gao HTS	HSV augment	HSV augment primary fold	Insulin prom inh	Insulin prom inh cell count
Cn1c(CN2CCCC2)nc2cc(NC(=O)c3ccco3)ccc21	-2.3	-8	128	i	1.1	56	94
COc1cc2[nH]c(=S)n(C3CCN(Cc4ccccc4)CC3)c(=O)c2cc1OC	.	1	101	i	0.94	7	130
CC1CC(C)CN(S(=O)(=O)N2CCC(C(=O)NCc3ccco3)CC2)C1 (centres undefined)	.	-2	107	i	0.94	.	.
CN1C(=S)SC(/[N+]([O-])=C\c2ccccc2F)C1(C)C (centres undefined)	.	.	100	i	1.1	.	.
Cc1ccc(-n2nc(C)c3c(C(=O)OCC(=O)N(C)C4CCS(=O)(=O)C4)cc(-c4ccccc4)nc32)cc1 (centres undefined)	-2.5	-15	113	i	1.1	-29	53
Cc1ccc(S(=O)(=O)N(C)c2ccc(OC(=O)c3ccc(=O)[nH]c3)cc2)cc1	.	-5	105	i	0.97	.	.
COc1ccc(-c2ccc(S(=O)(=O)n3nc(OC(=O)c4cccs4)cc3N)cc2)cc1	.	-3	107	i	0.88	.	.
COc1ccc(-n2cc(-c3ccc(C)cc3)[n+]3c2SCC3)cc1	0.6	4	113	i	1	43	105
NS(=O)(=O)c1ccc(NC(=S)NCCc2ccccc2)cc1	.	0	88	i	0.91	.	.
O=C(CCCc1ccccc1)Nc1ccc(S(=O)(=O)N2CCOCC2)cc1	.	.	105	i	0.99	.	.
Cc1nc(-c2ccc(Cl)cc2)sc1C(=O)CBr	.	3	92	i	1.1	44	87
COc1ccc(NC(=O)C2CCCO2)cc1 (centres undefined)	-1.5	4	101	i	0.87	-129	99
COc1ccc(OCCCC(=O)Nc2nc(-c3ccccn3)cs2)cc1	.	-1	94	i	1.1	-11	161
Cc1c(NS(=O)(=O)c2ccc3c(c2)CCN3C(=O)C2CC2)c(=O)n(-c2ccccc2)n1C	-1.9	21	102	.	.	44	109
COc1ccc(/C=C/C(=O)Nc2ccc3c(c2)OCCO3)cc1OC	1.1	7	96	i	0.78	7	168

(next part)
smiles	GALR2 ag	PKD1 kinase inh	RGS16-Gao HTS	HSV augment	HSV augment primary fold	Insulin prom inh	Insulin prom inh cell count
CCOC(=O)c1sc2nc(C)[nH]c(=O)c2c1C	.	.	100	i	0.91	.	.
O=C(NCc1ccc2[nH]c3c(c2c1)CCCC3)c1ccc(S(=O)(=O)N2CCCC2)cc1	-1.9	-2	112	i	1	22	123
CC1CC(NC(=O)CC#N)CC(C)(C)C1 (centres undefined)	.	.	101	i	0.93	.	.
COc1ccc(S(=O)(=O)c2ccc(OC)cc2)cc1	-0.6	-4	103	i	0.99	-26	104
O=C(Nc1c(C(=O)Nc2ccccc2)cnn1-c1ccccc1)c1ccco1	-1.6	-8	58	i	1	.	.
Cc1cccc(N2CCN(C(=O)/C=C/c3ccco3)CC2)c1C	-1.5	-5	100	i	1	-22	92
O=C(Nc1cc(C(F)(F)F)ccc1N1CCOCC1)c1ccc(Br)o1	1.0	0	90	i	0.9	-12	175
Cc1cc(C)n(CCN(C)Cc2nc(Cc3ccccc3F)no2)n1	.	-2	124	i	0.83	7	72
O=C(O)CCc1ccc(-c2ccccc2)n1CC(=O)O	0.1	-6	95	i	1.1	60	159
COc1cccc(C2OC(=O)c3ccccc3N2C(C)=O)c1OC(C)=O (centres undefined)	-1.2	7	102	i	0.9	-15	94
O=C(NCC1CCN(S(=O)(=O)c2ccccc2)CC1)Nc1ccc(F)cc1	.	.	99	i	0.99	.	.
CCO[C@@H]1OC(C(=O)Nc2ccccc2)=C[C@H](c2csc3ccccc23)[C@H]1CCCO	.	16	92	i	0.76	.	.
Cc1ccc(C(=O)Nc2ccc3c(c2)OCCO3)o1	-2.8	-12	96	i	0.86	-17	134
CCCCNc1cc(C)oc(=O)c1C(C)=O	-2.5	-1	100	i	0.97	-34	110
Cc1ccc(S(=O)(=O)N(C)CC(=O)Nc2cccc(C)n2)cc1	1.7	-6	107	i	0.91	79*	38*

Going on with the list.
smiles	GALR2 ag	PKD1 kinase inh	RGS16-Gao HTS	HSV augment	HSV augment primary fold	Insulin prom inh	Insulin prom inh cell count
S=c1nc(-c2cc(Cl)ccc2Cl)[nH][nH]1	.	-5	98	i	0.96	.	.
CN(Cc1nccn1C)C(=O)CCc1nnc(CCC2CCCCC2)o1	.	18	104	i	1.1	.	.
NC(=O)CCCC1=NS(=O)(=O)c2ccccc2N1	-0.4	1	94	i	0.96	0	123
COc1ccc(-c2nc3ccccc3c(=O)n2NC(=O)c2cccnc2Cl)cc1OC	-0.9	-10	93	i	0.99	17	103
COc1ncccc1-c1nnn(-c2ccc(Cl)c(Cl)c2)n1	.	8	102	i	0.95	.	.
Cc1cccc(N2C(=O)C3CC3C2=O)c1 (centres undefined)	.	-5	100	i	0.93	.	.
COc1ccc(N2CCN(C(CNC(=O)c3ccc4c(c3)OCO4)c3cccnc3)CC2)cc1 (centres undefined)	-1.5	1	126	i	0.95	7	119
COc1cccc(C2=NOC(C(=O)NC3CCCCC3)C2)c1 (centres undefined)	-1.0	10	99	i	1	-45	56
N/C(CS(=O)(=O)c1ccccn1)=N\OC(=O)c1ccc(Cl)cc1	.	.	102	i	0.98	.	.
Cn1c(=O)c2c(ncn2CC(=O)OCC(=O)Nc2cccc(Cl)c2)n(C)c1=O	.	5	103	i	0.83	-92	18
CC1CCCC(C)N1C(=O)COC(=O)CCc1nc2ccccc2c(=O)[nH]1 (centres undefined)	0.2	2	109	.	.	-162	103
O=C(NCCCn1ccnc1)C(=O)NCC(c1cccnc1)N1CCN(c2ccc(F)cc2)CC1 (centres undefined)	-0.6	-3	101	i	1	-12	111
CC(C)Oc1cc(S(=O)(=O)N2CCCCC2)ccc1N	.	6	97	i	1.1	0	90
CCOC(=O)CNC(=O)COc1ccc(Cl)cc1Br	-2.1	5	102	i	0.85	11	162
COC(=O)C1=CN(C2CC2)C=C(C(=O)OC)C1c1ccc(C(=O)OC)cc1	3.7	-2	102	i	0.9	-39	92

More entries:
smiles	GALR2 ag	PKD1 kinase inh	RGS16-Gao HTS	HSV augment	HSV augment primary fold	Insulin prom inh	Insulin prom inh cell count
COc1ccc(NC(=O)c2cccc(S(=O)(=O)Nc3ccc(Br)cc3)c2)cn1	-3.1	8	107	i	1.1	.	.
O=C1CC(SCCO)C(=O)N1c1ccc(Oc2ccccc2)cc1 (centres undefined)	-2.7	-7	67	i	0.82	31	78
CC(C)(C)NC(=O)C[n+]1ccc(C(N)=O)cc1	.	2	100	i	1.1	7	90
CC(=O)C1=C(C)NC(SCc2cccc([N+](=O)[O-])c2)=C(C#N)C1c1ccco1 (centres undefined)	-1.9	-6	103	.	.	.	.
Cc1cc2ccccn2c1C(=O)Nc1cccc(Cl)c1	.	-3	106	i	1	15	104
O=[N+]([O-])c1ccc(NC(=S)NCC(c2cccnc2)N2CCOCC2)cc1 (centres undefined)	.	7	86	i	0.8	20	103
O=c1ccn(-c2ccccc2)[nH]1	.	-4	88	i	0.94	7	69
CCOC(=O)C(=NC1CCS(=O)(=O)C1)NNc1cc(Cl)ccc1Cl (centres undefined)	.	.	99	i	0.99	.	.
COc1ccc(C2=NOC(C(=O)O)C2)cc1 (centres undefined)	-1.1	-10	99	i	1	-3	105
NC(N)=NC(N)=Nc1ccc(O)cc1	.	.	103	i	0.96	.	.
COC(=O)C1=C(C)N=C2SC(C)C(=O)N2C1/C=C/c1ccccc1 (centres undefined)	-0.4	-12	126	i	0.98	-49	118
CCOc1cc(CNn2nnnc2N)cc(Cl)c1OCC(=O)NC(C)(C)C	-1.6	-3	102	i	0.94	18	99
N#Cc1cc(Cl)c(N2CCOCC2)cc1C#N	1.2	-2	93	i	1.1	-20	99
CN(C)c1ccc(NC(=O)CC(NCc2ccccn2)C(=O)O)cc1 (centres undefined)	-1.5	-7	89	i	0.97	.	.
Cc1c(F)cccc1NS(=O)(=O)c1ccc2c(c1)NC(=O)CO2	.	-4	108	i	0.97	.	.

(listing goes on)
smiles	GALR2 ag	PKD1 kinase inh	RGS16-Gao HTS	HSV augment	HSV augment primary fold	Insulin prom inh	Insulin prom inh cell count
Cc1occc1-c1nnc(SCC(=O)N(C)CCC#N)n1N	0.5	-2	104	i	0.94	18	81
CC1=CC(C)C(C(=O)O)C(C(=O)N2CCN(C)CC2)C1 (centres undefined)	.	-7	103	i	1	33	182
CC(=O)NCCOc1nc(N(C)C)nc(N(C)C)n1	-0.7	6	104	i	0.93	-28	200
CN(/N=C/c1ccc(C(C)(C)C)cc1)C1=NCCN1	.	2	101	i	1	-178	71
CSc1nsc(SCC(=O)NC2CCCCC2)n1	-0.2	5	104	i	1	43	172
Cc1cc(C(=O)NCCN2C(=O)S/C(=C\c3cccs3)C2=O)ccc1[N+](=O)[O-]	-0.8	7	106	i	1.1	-3	78
CCNC(=S)Nc1cccc([N+](=O)[O-])c1	0.0	-5	107	i	0.98	-14	132
CCN(CC)CCCNc1cc(C)nc2cc(-c3cccs3)nn12	.	-1	102	i	0.91	21	72
COc1ccc(Nc2nc(N)nc(CSC(=S)N3CCC(C)CC3)n2)cc1	0.0	-6	109	i	1	-15	64
Cc1ccc(C(=O)COC(=O)c2cccs2)cc1	-0.8	0	85	i	0.89	18	77
O=C(Nc1cccc(O)c1)c1ccc(C(F)(F)F)cc1	.	3	94	i	1.1	.	.
Cc1cc(C)n(C(=O)CNC(=O)CCc2ccccc2)n1	0.5	-3	101	i	1.1	-29	114
CCOC(=O)C1=C(C)N=C2SCCC(=O)N2C1c1ccc(OC)cc1 (centres undefined)	.	2	107	i	0.99	-22	130
COC(=O)[C@H](CC(C)C)NC(=O)Nc1ccc(S(N)(=O)=O)cc1	.	.	103	i	1.1	.	.
Cc1nc2ccccc2cc1O	-1.6	2	102	i	0.87	68*	58*
CC(=O)OCC(=O)[C@H]1CC[C@H]2[C@@H]3CC=C4C[C@@H](O)CC[C@]4(C)[C@H]3CC[C@]12C	-0.2	4	102	i	0.9	33	128

Single records, as listed above. Order of values: GALR2 ag	PKD1 kinase inh	RGS16-Gao HTS	HSV augment	HSV augment primary fold	Insulin prom inh	Insulin prom inh cell count
Record of Cc1occc1-c1nnc(SCC(=O)N(C)CCC#N)n1N = 0.5	-2	104	i	0.94	18	81
Record of Cc1cc(C(=O)NCCN2C(=O)S/C(=C\c3cccs3)C2=O)ccc1[N+](=O)[O-] = -0.8	7	106	i	1.1	-3	78
Record of CCOC(=O)C1=C(C)N=C2SCCC(=O)N2C1c1ccc(OC)cc1 (centres undefined) = .	2	107	i	0.99	-22	130
Record of CCN(CC)CCCNc1cc(C)nc2cc(-c3cccs3)nn12 = .	-1	102	i	0.91	21	72
